GIV-Gai inh: GIV-Galpha-i interaction inhibition. Galpha-i3/FITC-GIV peptide fluorescence polarization, 90 min; active compounds read low; scaled: aluminum fluoride 0%, vehicle 100%. actives 0.42% (n = 210,000). percent of control (FP), % (no concentration beside the values). AID 1224905. P08753;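 active = replicate mean at 85% of control or lower, very high polarization wells dropped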;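 also: wells of about 15 µL received 100 nL stock; the first replicate is given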
Target sequence (P08753 whole entry, looked up): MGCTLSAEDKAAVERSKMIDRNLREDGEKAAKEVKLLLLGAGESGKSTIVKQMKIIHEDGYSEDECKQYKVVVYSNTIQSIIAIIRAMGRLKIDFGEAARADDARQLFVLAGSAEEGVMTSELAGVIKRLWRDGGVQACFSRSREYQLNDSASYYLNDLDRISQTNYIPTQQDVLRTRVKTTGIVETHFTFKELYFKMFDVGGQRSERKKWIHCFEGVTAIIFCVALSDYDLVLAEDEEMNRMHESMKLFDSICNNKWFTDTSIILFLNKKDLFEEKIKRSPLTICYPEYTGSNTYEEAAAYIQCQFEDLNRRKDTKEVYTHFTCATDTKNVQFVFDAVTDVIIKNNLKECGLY
An asterisk follows results filed as active; ! = repeats disagree.

SMILES	GIV-Gai inh
O=C(COc1ccc(Cl)cc1Cl)Nc1c2c(nn1-c1ccc(F)cc1)CS(=O)(=O)C2	103.0
O=C(Nc1nccn(-c2ccc(Cl)cc2)c1=O)c1ccccn1	99.6
O=[N+]([O-])c1ccccc1S(=O)(=O)N1c2cccc3cccc(c23)S1(=O)=O	100.0
O=C(O)c1cccc(N=CC23c4ccccc4C(c4ccccc42)C2C(=O)N(c4ccc(Br)cc4)C(=O)C23)c1 (configuration not stated)	101.1
Cc1noc(C)c1C1CCCN1S(=O)(=O)c1ccccc1F (configuration not stated)	100.3
CC(=O)Nc1cc(C(=O)N2CCC(Cc3ccccc3)CC2)ccc1Sc1ccc(C)cc1	110.0
Cc1ccc2c(c1)N(C(=O)CSc1nc3ccccc3c(=O)[nH]1)CCO2	104.8
CCc1onc(C)c1C1CCCN1Cc1ccc(OCC(C)C)c(OC)c1 (configuration not stated)	106.1
CCc1ccc(-c2nc(NC(C)=O)c3c(=O)oc4ccccc4c3n2)cc1	108.3
COc1ccc(C2CC(=O)C3=C(C2)Nc2ccccc2NC3c2cc3c(cc2Br)OCO3)cc1OC (configuration not stated)	102.5
CN(C)c1nc2ncn3c(=O)n(CC(=O)Nc4ccc(F)c(F)c4)nc3c2s1	98.7
Clc1cc(Cl)c2c(c1)C=C1CCCCC1(N1CCOCC1)O2 (configuration not stated)	100.0
CC1=C(C(=O)Nc2ccccc2)C(c2ccc(Br)cc2)n2nc(SCc3ccccc3)nc2N1 (configuration not stated)	101.4
CC(=O)c1c2c3c(c(Br)ccc3n(C)c1=O)C(=O)c1ccccc1-2	110.9
CCc1ccc(NC(=O)Nc2ccc(CCc3nc4ccccc4[nH]3)cc2)cc1	102.3
COc1ccc(C(=O)OCCN(C2=NS(=O)(=O)c3ccccc32)c2cccc(C)c2)cc1	111.3
CC(C)CC(=O)N1CCC(N(Cc2csc(-c3cccs3)n2)S(C)(=O)=O)CC1	103.6
O=C1/C(=C/c2ccc(-c3ccc(S(=O)(=O)Nc4nccs4)cc3)o2)Sc2ccccc21	220.1
O=S(=O)(NCCc1nc(-c2ccc(Cl)cc2)n[nH]1)c1ccc(F)cc1	100.1
C#CCOc1ccc(C2Nc3c(C)cc(C)cc3[C@H]3OCC[C@@H]23)cc1 (some centres not stated)	102.9

Another view of some results above:
CCc1ccc(NC(=O)Nc2ccc(CCc3nc4ccccc4[nH]3)cc2)cc1
  GIV-Gai inh: 102.3
CCc1ccc(-c2nc(NC(C)=O)c3c(=O)oc4ccccc4c3n2)cc1
  GIV-Gai inh: 108.3
CC(=O)c1c2c3c(c(Br)ccc3n(C)c1=O)C(=O)c1ccccc1-2
  GIV-Gai inh: 110.9
C#CCOc1ccc(C2Nc3c(C)cc(C)cc3[C@H]3OCC[C@@H]23)cc1 (some centres not stated)
  GIV-Gai inh: 102.9

(continued)
SMILES	GIV-Gai inh
COc1ccc(NC(=O)CCCC(=O)c2ccccc2)cc1	107.8
CCN(CC)c1ccc2cc(-c3nc(-c4ccccc4)cs3)c(=O)oc2c1	-31.6*!
CCOC(=O)C1=C(O)/C(=C/c2ccc(Cl)cc2)SC1=Nc1ccccc1	112.3
COc1ccc(-c2nc3c4c(-c5ccccc5)c(-c5ccccc5)oc4ncn3n2)cc1	106.6
CC(=O)N1C(=S)NC(=O)/C1=C/c1cc2ccc(C)cc2nc1N1CCOCC1	90.2
Cc1nccc2[nH]c(=O)c(C(=O)NCCc3ccccc3)cc12	112.0
Cc1c(C(=O)NCCN2CCOCC2)sc2ncnc(N3CCN(c4ccccc4F)CC3)c12	106.4
COC(=O)C1=C(C(=O)OC)SC(=C2C(=S)C(C)(C)N(C(=O)CCC3CCCCC3)c3cc(C)c(C)cc32)S1	103.7
O=C(NC1CC1)C1CCN(c2cnc(N3CCCCCC3)nc2)CC1	100.9
O=C(CSc1nnc(CNC(=O)c2ccc(S(=O)(=O)N3CCOCC3)cc2)n1-c1ccc(F)cc1)Nc1nccs1	108.9
Cc1nn(-c2ccc3nnc(C)n3n2)c2c1C(c1cccc(F)c1)CC(=O)N2 (configuration not stated)	99.4
c1cncc(-c2nnc(C3CCC3)o2)c1	104.1
Clc1cccc(C2N(c3ccccc3)CCN2c2ccccc2)c1Cl	119.0
COc1cn(CC(=O)NC2CCCC2)c(CN2CCCCC2)cc1=O	97.6
COc1ccc(NC(=O)Cn2cnc3sc(C(=O)Nc4ccc(C)cc4Br)c(C)c3c2=O)cc1	102.4
O=C(Nc1ccc(C2(C(=O)NCC3CCCO3)CC2)cc1)c1ccc(Cl)cc1 (configuration not stated)	105.8
CC(C)CC(=O)Nc1ccc(SCc2nnc(-c3ccccc3)o2)cc1	106.3
COc1ccc(C2NCCc3c2[nH]c2ccccc32)cc1CSc1nc2ccccc2[nH]1 (configuration not stated)	100.7
CC12COC3(C(=O)N4CCN(c5ccccn5)CC4)CC1CCC32C (configuration not stated)	108.6
Cc1ccc2c(c1)C1(C(=O)N2)C(C#N)=C(N)OC2=C1C(=O)CCC2 (configuration not stated)	111.6
Cc1ccccc1S(=O)(=O)Nc1ccccc1-c1ccc2ccccc2n1	105.4
O=C(Nc1cc(C(=O)N2CCCCCC2)ccc1N1CC2CC(C1)c1cccc(=O)n1C2)c1cccc(C(F)(F)F)c1 (configuration not stated)	115.1
COc1ccc(-c2cc(-c3ccccc3)c(C#N)c(S(C)=O)n2)cc1 (configuration not stated)	100.2
CCCS(=O)(=O)c1c(S(=O)(=O)CCC)c2cc(-c3ccncc3)ccn2c1C(=O)c1ccc(OC)cc1	116.9
Cc1cc(=O)oc2c3c(c(NC=O)cc12)O/C(=C\c1ccccc1)C3=O	102.1
CC(C)(C)CC(=O)N1CCN(Cc2noc(-c3ccccc3)n2)CC1	98.2
C#CCN1C(=O)C(O)(CC(=O)c2ccc(OC)c([N+](=O)[O-])c2)c2ccccc21 (configuration not stated)	101.1
CCOC(=O)C1=C(N)OC2=C(C(=O)CCC2)C1c1ccsc1 (configuration not stated)	110.2
CCc1nnc(NC(=O)CCCOc2ccccc2C)s1	110.3
Cc1ccc(C2CCCCCN2C(=O)Nc2ccccc2Br)s1 (configuration not stated)	103.2
CCCc1ccc(S(=O)(=O)Nc2ccc3nc(S(=O)(=O)CC)sc3c2)cc1	106.9
Nc1ccc2nc(SCC(=O)Nc3ccc4nc(SCC(=O)NC5CC5)sc4c3)sc2c1	109.4
CCc1ccc(N2C(=O)c3ccccc3NC2c2ccc(OCc3ccccc3)cc2)cc1 (configuration not stated)	100.8
CC(C)c1nnc(-c2ccc(S(=O)(=O)NC3CCCCCC3)o2)o1	105.2
Cc1cc(C2CCCN2S(=O)(=O)c2c(C)noc2C)no1 (configuration not stated)	97.7
Cc1ccccc1-n1[nH]c(C)c(C=Nc2cc([N+](=O)[O-])cc([N+](=O)[O-])c2O)c1=O	116.7
Cc1nnc(NC(=O)CSc2nnc(NC(=O)c3cc([N+](=O)[O-])ccc3Cl)s2)s1	116.6
CCOc1cccc2c1OC(c1ccccc1Cl)N1N=C(c3cccc(OC)c3)CC21 (configuration not stated)	104.9
O=C(CSc1nc2ccccc2c(=O)[nH]1)NCc1nc2ccccc2[nH]1	101.5
CC(C)(C)NC(=O)N1CCC(OC2CCCC2)CC1	101.6
COc1ccc(C)cc1NC(=O)c1sc2nc(C)nc(N3CCCCC3)c2c1C	98.2
Cn1c(=O)c2nc(SCc3ccccc3)n(C)c2n(C)c1=O	98.0
CCC1(C)CC(CCNCc2ccc(F)cc2)(c2ccccc2OC)CCO1 (configuration not stated)	105.3
Cc1ccc(-c2nnc(N3CCOCC3)c3ccccc23)cc1S(=O)(=O)N(C)C	101.8
Cc1ccccc1NC(=O)Nc1cccc(CCc2nc3ccccc3n2C)c1	100.4
CCOC(=O)N1CCN(C(=O)c2sc3ncn(C)c(=O)c3c2C)CC1	101.7
COc1ccc(CCNC(=O)CSc2nc3ccccc3c(=O)n2CCCC(=O)NCCc2ccccc2)cc1OC	112.0
O=c1oc(/C=C/c2ccco2)nc2sc3c(c12)CCCCC3	92.6
CCOc1ccccc1NC(=O)c1cc(S(=O)(=O)N2CCN(Cc3ccc4c(c3)OCO4)CC2)ccc1F	107.7
O=S(=O)(c1ccc(F)cc1)n1nnc2ccccc21	108.6
COC(=O)c1ccc(C(=O)OC)c(NC(=O)c2cnn3c(C(F)(F)F)cc(-c4ccc(OC)c(OC)c4)nc23)c1	107.8
N#CC1=CN(c2cccc(Br)c2)c2ccccc2S1(=O)=O	96.8
CCCCC(=O)Nc1ccc(N(C)CC2COCCO2)c(C(=O)O)c1 (configuration not stated)	101.1
CN(C(=O)c1ccc(-c2cc(NC3CCCCC3)ncn2)cc1)C1CCCCC1	99.4
CS(=O)(=O)N1CCC(c2cc(-c3ccc(F)cc3)n[nH]2)CC1	100.5
COC(=O)c1cc(Oc2nc(C)nc3sc4c(c23)CCC4)cc(C(=O)OC)c1	101.4
O=S(=O)(c1cccn2c(SCc3ccc(Cl)cc3)nnc12)N1CCCC1	104.6
Cc1cccc(C)c1NC(=O)C(Cc1c[nH]c2ccccc12)NC(=O)OC(C)(C)C (configuration not stated)	108.5
O=C(NN1S(=O)(=O)c2ccccc2S1(=O)=O)c1ccco1	112.4
CCC(C)C1N=C2c3ccccc3N=C(SCC(=O)NCCc3ccc(S(N)(=O)=O)cc3)N2C1=O (configuration not stated)	107.7

(further entries)
SMILES	GIV-Gai inh
CCCS(=O)(=O)c1c(S(=O)(=O)CCC)c2c(N)cccn2c1C(=O)c1ccc(Br)cc1	120.9
CCN1CCN(c2ncnc3c2c(-c2ccccc2)cn3-c2ccc(Br)cc2)CC1	98.5
C=CCNC(=S)Nc1sc2c(c1C(=O)OCC)CC(C)(C)OC2	115.0
Cc1ccc(N2C(=O)C3C(C2=O)C2(C)c4ccccc4C3(C)c3ccccc32)cc1[N+](=O)[O-] (configuration not stated)	100.6
O=C(Nc1cccc(Cl)c1)c1nnc(C2CCCN(C(=O)NCC3CCCO3)C2)s1 (configuration not stated)	107.6
CC1(C)Cc2ccccc2C2=C(C(=O)N3CCCCC3)C(=O)C(=O)N21	114.5
Cc1noc(/C=C/c2ccc(S(=O)(=O)N3CCC(C)CC3)s2)c1NC(=O)C1CC1	101.7
COc1cccc(C(=O)Nc2ccccc2-c2ccc3ccccc3n2)c1	104.1
CCc1nc2ccc(C(=O)NCc3ccccc3OC)cc2nc1CC	104.5
COc1ccc(-c2cc(C(F)(F)F)n3ncc(C(=O)Nc4c(C)n(C)n(-c5ccccc5)c4=O)c3n2)cc1	111.5
CCOC(=O)c1sc2nc(SCC(=O)NCc3ccco3)n(Cc3ccc(C)cc3)c(=O)c2c1C	105.0
CCSCCOC(=O)C1=C(C)NC2=C(C(=O)CC(c3cccs3)C2)C1c1cccc([N+](=O)[O-])c1 (configuration not stated)	100.6
Cc1cc([N+](=O)[O-])c(C)cc1-c1ccc(/C=N/c2c(-c3ccco3)nc3ccccn23)o1	105.2
COCCCNC1=NCCNC12CCN(S(=O)(=O)c1ccc(C)cc1C)CC2	105.0
COc1cc(C2C(C#N)=C(N)Oc3n[nH]c(-c4cc(OC)c(OC)c(OC)c4)c32)cc(Cl)c1O (configuration not stated)	109.8
CC(C)C(=O)N1CCc2c(c(C(=O)N3CCC(C(=O)N4CCCCC4)CC3)nn2C)C1	100.6
Cc1noc(C)c1C1CCCN1C(=O)c1c(Cl)cnn1C (configuration not stated)	91.2
Cc1ccc(C(=O)Nc2cc(F)c3[nH]c(=O)ccc3c2)cc1	107.1
COC(=O)c1ccc2c(c1)N(Cc1ccc(F)cc1)C(=O)CS2	93.3
CCCCc1ccc(-c2c3c(c(-c4ccccc4)n2-c2ccc(Br)cc2)C(=O)c2ccccc2C3=O)cc1	125.6
COC(=O)c1cccc(Nc2nc(-c3ccc([N+](=O)[O-])cc3)nc3ccccc23)c1	105.9
Cc1ccc2c(c1)/C(=C/c1ccc([N+](=O)[O-])cc1)c1cc3ccccc3nc1-2	103.3
COc1ccc(NC(=O)c2c(NC(=O)c3ccccc3Br)sc3c2CCCCC3)cc1	108.9
CN1CCN(CCNC(=O)CN2C(=O)CN(C(=O)NCc3ccccc3)c3ccccc32)CC1	94.6
COc1ccccc1C(O)(C(=O)NN(c1ccccc1)c1ccccc1)c1ccccc1OC	107.9
COc1ccc2[nH]cc(CCNC(=O)C(C)C3CCN(S(=O)(=O)c4c(C)noc4C)CC3)c2c1 (configuration not stated)	109.3
CCOP(=O)(OCC)c1nc(-c2ccccc2Cl)oc1N1CCOCC1	102.1
COCCN1C(=O)CN(C2CCCCC2)C(=O)C1c1ccc(OC)c(OC)c1 (configuration not stated)	107.5
CN(C)c1ccc(/C=N/c2oc(-c3ccccc3)c(-c3ccccc3)c2C#N)cc1[N+](=O)[O-]	104.0
CN(C(=O)c1cnc(N2CCCCC2)c2ccccc12)C1CCCCC1	102.4
CC(=O)Nc1cccc(N2CC(C(=O)Nc3ccc4c(c3)OCO4)CC2=O)c1 (configuration not stated)	102.6
Cc1ccccc1OCC(=O)Nc1cc(-c2ccccc2)nn1-c1ccccc1	101.6
CCCS(=O)(=O)N1CCCC(c2nc(CNC(=O)C3CC3)cs2)C1 (configuration not stated)	99.6
COc1cc(OC)c(NC(=O)CC2COc3ccccc3NC2=O)cc1Cl (configuration not stated)	105.8
COc1cccc(CC(=O)NCC(=O)Nc2nc3ccccc3[nH]2)c1	104.1
CNS(=O)(=O)c1ccc2c(c1)Cc1cc(S(=O)(=O)NC)ccc1-2	111.2

3 of the entries above in order of the GIV-Gai inh value, ascending:
SMILES	GIV-Gai inh
CN1CCN(CCNC(=O)CN2C(=O)CN(C(=O)NCc3ccccc3)c3ccccc32)CC1	94.6
COC(=O)c1cccc(Nc2nc(-c3ccc([N+](=O)[O-])cc3)nc3ccccc23)c1	105.9
CNS(=O)(=O)c1ccc2c(c1)Cc1cc(S(=O)(=O)NC)ccc1-2	111.2

2 of the compounds above, as labelled records:
> Cc1ccccc1OCC(=O)Nc1cc(-c2ccccc2)nn1-c1ccccc1
  GIV-Gai inh: 101.6
> CCCS(=O)(=O)N1CCCC(c2nc(CNC(=O)C3CC3)cs2)C1 (configuration not stated)
  GIV-Gai inh: 99.6

Source: PubChem BioAssay

This is a subset (hit frequency here may not be typical).
